A1 apoptosis 2: compounds inhibiting A1, read as caspase activation. AID 2465. 24,000 tested, under 10 active. MEF A1-2A-BIM cells, caspase-Glo luminescence, 3 h; percent of clofoctol response, DMSO zero. caspase activation, % (concentration not given with the values); in the data active means caspase activation above about 5.9%;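 further: wells of about 30 µL received 50 nL stock; the first replicate is given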
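Test system – A1-2A-BIM-expressing MEF cells · Input – 2500 cells/well · Medium – RPMI-1640 growth medium with 10% FBS · Compound dosing – 50 nL pinned compound · Timing – 3 h compound exposure at 37 °C · Technique – Caspase-Glo luminescence (DEVD substrate) · Evaluation – Caspase-3/7 activity from luminescence increase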
Numbers without * were called inactive. Not all compounds are listed, so the mix of outcomes need not match the whole.

canonical_smiles,A1 apoptosis 2
C[C@@H]1CN([C@H](C)CO)C(=O)c2cccc(NC(=O)c3ccc(-c4nccs4)cc3)c2O[C@H]1CN(C)Cc1ccc(Oc2ccccc2)cc1,-0.1
C[C@@H]1CCCCO[C@H](CN(C)CC2CC2)[C@H](C)CN([C@@H](C)CO)C(=O)c2cc(NS(=O)(=O)c3cccs3)ccc2O1,-0.5
Cc1noc(C)c1NC(=O)Nc1cccc2c1O[C@H](CN(C)C(=O)Nc1ccc(F)cc1)[C@H](C)CN([C@H](C)CO)C2=O,-0.7
COc1ccc(S(=O)(=O)Nc2cccc3c2O[C@@H](CN(C)CC2CC2)[C@H](C)CN([C@H](C)CO)C3=O)cc1,-0.8
C[C@@H]1CN([C@@H](C)CO)C(=O)c2cccc(NC(=O)c3ccncc3)c2O[C@@H]1CN(C)CC1CC1,0.1
C[C@H]1CN([C@@H](C)CO)C(=O)c2cccc(NC(=O)c3nc4ccccc4s3)c2O[C@@H]1CN(C)S(=O)(=O)c1ccc(F)cc1,-0.4
C[C@@H]1CN([C@H](C)CO)C(=O)c2cccc(NC(=O)Nc3cccc4ccccc34)c2O[C@H]1CN(C)C(=O)Nc1ccc(F)cc1,0.5
COc1ccc(CN(C)C[C@@H]2Oc3ccc(NC(=O)Nc4ccc(C(F)(F)F)cc4)cc3C(=O)N([C@H](C)CO)C[C@H]2C)cc1,0.7

Further records.
canonical_smiles,A1 apoptosis 2
C[C@@H]1CCCCO[C@@H](CN(C)C(=O)CCC(F)(F)F)[C@H](C)CN([C@H](C)CO)C(=O)c2cc(N(C)C)ccc2O1,-1.6
C[C@H](CO)N1C[C@H](C)[C@@H](CN(C)Cc2ccc(Oc3ccccc3)cc2)Oc2ccc(NC(=O)Cc3ccccc3)cc2CC1=O,-1.0
C[C@H](CO)N1C[C@H](C)[C@@H](CN(C)Cc2ccc(C(F)(F)F)cc2)Oc2c(cccc2N(C)C)C1=O,-0.1
COc1ccc(OC(=O)N(C)C[C@H]2OCc3cn(nn3)CCCC(=O)N([C@H](C)CO)C[C@H]2C)cc1,-0.5
C[C@H]1CN([C@@H](C)CO)C(=O)c2cccc(NC(=O)C3CCCCC3)c2O[C@H]1CN(C)Cc1ccncc1,0.1
O=C(O)CCCCCC(=O)N/N=C/c1ccc(F)cc1,0.0
Cc1ccc(S(=O)(=O)Nc2ccc3c(c2)CC(=O)N([C@H](C)CO)C[C@@H](C)[C@@H](CN(C)S(=O)(=O)c2c(C)noc2C)O3)cc1,-0.5
C[C@@H]1CN([C@@H](C)CO)C(=O)c2cc(NS(=O)(=O)c3cccs3)ccc2O[C@@H]1CN(C)C(=O)Nc1ccc2c(c1)OCO2,0.2

The list goes on.
canonical_smiles,A1 apoptosis 2
COC1(C)CN(Cc2ccccc2Br)[C@H](/C=C/c2ccccc2)[C@H](Cc2ccccc2)O1 (stereo partly drawn),1.1
COc1ccc(NC(=O)Nc2ccc3c(c2)C(=O)N([C@@H](C)CO)C[C@@H](C)[C@H](CN(C)Cc2ccncc2)OCCCC[C@H](C)O3)cc1,1.0
O=C(NO)c1cccc(C(=O)N/N=C/c2ccc(F)cc2)c1,-0.2
C[C@H](CO)N1C[C@H](C)[C@H](CN(C)S(=O)(=O)c2cccs2)Oc2ccc(NC(=O)Cc3ccccc3)cc2CC1=O,-0.8
C[C@@H]1CCCCO[C@H](CN(C)C(=O)Nc2ccc3c(c2)OCO3)[C@H](C)CN([C@H](C)CO)C(=O)c2cc(N(C)C)ccc2O1,-0.3
COc1cccc(/C=C(\C#N)C(=O)Nc2c(C)n(C)n(-c3ccccc3)c2=O)c1,-0.9
CC(C)NC(=O)N(C)C[C@@H]1Oc2ccc(NC(=O)c3ccncc3)cc2C(=O)N([C@H](C)CO)C[C@@H]1C,-1.8
COc1ccc([Si](C)(C)[C@@H]2[C@@H](CCO)O[C@]3(C(=O)N(Cc4ccc(N5CCC5=O)cc4)c4ccccc43)[C@H]2C)cc1,-0.8

Some of these compounds in order of length of the SMILES, ascending.
canonical_smiles,A1 apoptosis 2
O=C(NO)c1cccc(C(=O)N/N=C/c2ccc(F)cc2)c1,-0.2
CC(C)NC(=O)N(C)C[C@@H]1Oc2ccc(NC(=O)c3ccncc3)cc2C(=O)N([C@H](C)CO)C[C@@H]1C,-1.8
C[C@@H]1CCCCO[C@H](CN(C)C(=O)Nc2ccc3c(c2)OCO3)[C@H](C)CN([C@H](C)CO)C(=O)c2cc(N(C)C)ccc2O1,-0.3
COc1ccc(NC(=O)Nc2ccc3c(c2)C(=O)N([C@@H](C)CO)C[C@@H](C)[C@H](CN(C)Cc2ccncc2)OCCCC[C@H](C)O3)cc1,1.0

Continued.
canonical_smiles,A1 apoptosis 2
C[C@@H]1CN([C@@H](C)CO)C(=O)c2cccc(NC(=O)C3CCOCC3)c2O[C@H]1CN(C)C(=O)Nc1cccc2ccccc12,0.5
C[C@@H]1CCCCO[C@@H](CN(C)C(=O)c2ccccc2)[C@H](C)CN([C@H](C)CO)C(=O)c2cc(NS(=O)(=O)c3ccccc3)ccc2O1,0.8
Cc1ccc(CN(C)C[C@H]2OCc3cnnn3CCCC(=O)N([C@H](C)CO)C[C@@H]2C)cc1,0.7
C[C@H]1CCCCO[C@H](CN(C)Cc2ccccc2)[C@@H](C)CN([C@@H](C)CO)C(=O)c2cc(NC(=O)CCC(F)(F)F)ccc2O1,0.0
C[C@@H]1CN([C@H](C)CO)C(=O)c2cc(NC(=O)Nc3cccc4ccccc34)ccc2O[C@@H](C)CCCCO[C@@H]1CN(C)C(=O)Cc1ccccc1,0.3
COc1ccc(S(=O)(=O)N(C)C[C@@H]2OCCCC[C@@H](C)Oc3ccc(NC(=O)Nc4ccccc4)cc3C(=O)N([C@@H](C)CO)C[C@@H]2C)cc1,-1.1
C[C@@H]1CCCCO[C@@H](CN(C)Cc2ccccc2)[C@H](C)CN([C@H](C)CO)C(=O)c2cc(NC(=O)Nc3ccc(C(F)(F)F)cc3)ccc2O1,-0.2
CC(C)(C)OC(=O)NC/C=N/NC(=O)CCCCC(=O)NO,0.6

Laid out differently: four of the compounds above
C[C@@H]1CCCCO[C@@H](CN(C)C(=O)c2ccccc2)[C@H](C)CN([C@H](C)CO)C(=O)c2cc(NS(=O)(=O)c3ccccc3)ccc2O1
  A1 apoptosis 2: 0.8
C[C@@H]1CN([C@H](C)CO)C(=O)c2cc(NC(=O)Nc3cccc4ccccc34)ccc2O[C@@H](C)CCCCO[C@@H]1CN(C)C(=O)Cc1ccccc1
  A1 apoptosis 2: 0.3
Cc1ccc(CN(C)C[C@H]2OCc3cnnn3CCCC(=O)N([C@H](C)CO)C[C@@H]2C)cc1
  A1 apoptosis 2: 0.7
CC(C)(C)OC(=O)NC/C=N/NC(=O)CCCCC(=O)NO
  A1 apoptosis 2: 0.6

(further entries)
canonical_smiles,A1 apoptosis 2
COc1ccc(NC(=O)Nc2cccc3c2O[C@@H](CN(C)Cc2ccc(Cl)c(Cl)c2)[C@H](C)CN([C@@H](C)CO)C3=O)cc1,-0.2
C[C@H]1CN([C@@H](C)CO)C(=O)c2cc(NS(=O)(=O)c3ccc(Cl)cc3)ccc2O[C@@H]1CN(C)CC1CC1,1.1
C[C@@H]1CN([C@H](C)CO)C(=O)c2cccc(NS(C)(=O)=O)c2O[C@@H]1CN(C)Cc1ccc(C(F)(F)F)cc1,-0.9
C[C@H]1CCCCO[C@@H](CN(C)S(=O)(=O)c2ccc(F)cc2)[C@@H](C)CN([C@@H](C)CO)C(=O)c2cc(NC(=O)C3CCCCC3)ccc2O1,-1.3
COc1ccc(NC(=O)N(C)C[C@@H]2Oc3c(NS(=O)(=O)c4cn(C)cn4)cccc3C(=O)N([C@H](C)CO)C[C@H]2C)cc1,-0.2
Cc1ccc(S(=O)(=O)Nc2ccc3c(c2)CC(=O)N([C@@H](C)CO)C[C@H](C)[C@H](CN(C)S(=O)(=O)c2c(C)noc2C)O3)cc1,0.0
Cc1ccccc1S(=O)(=O)N(C)C[C@H]1OCc2cn(nn2)CCCC(=O)N([C@H](C)CO)C[C@H]1C,-0.2
C[C@H]1CN([C@@H](C)CO)C(=O)c2cc(NC(=O)Nc3ccc(C(F)(F)F)cc3)ccc2O[C@H]1CN(C)Cc1ccccc1,2.0

Carrying on:
canonical_smiles,A1 apoptosis 2
Cc1cc(C(=O)Nc2cccc3c2O[C@H](CN(C)C(=O)NC2CCCCC2)[C@H](C)CN([C@@H](C)CO)C3=O)n(C)n1,-1.0
C[C@@H]1CCCCO[C@H](CN(C)Cc2ccc(C(=O)O)cc2)[C@H](C)CN([C@H](C)CO)C(=O)c2cc(NC(=O)c3ccncc3)ccc2O1,-0.5
COc1ccc(NC(=O)Nc2ccc3c(c2)C(=O)N([C@H](C)CO)C[C@H](C)[C@H](CN(C)C(=O)Nc2ccc4c(c2)OCO4)OCCCC[C@H](C)O3)cc1,1.2
C[C@@H]1CN([C@@H](C)CO)C(=O)c2cc(NC(=O)CCN3CCOCC3)ccc2O[C@@H]1CN(C)C,-1.0
C[C@H](CO)N1C[C@H](C)[C@H](CN(C)CC2CCCCC2)Oc2ccc(NC(=O)Nc3ccc(C(F)(F)F)cc3)cc2C1=O,-0.6
C[C@@H]1CN([C@H](C)CO)C(=O)c2cc(NS(=O)(=O)c3cn(C)cn3)ccc2O[C@@H]1CN(C)Cc1ccc(C(=O)Nc2ccccc2N)cc1,0.8
COc1ccc(OC(=O)N(C)C[C@@H]2OCc3cn(nn3)CCCC(=O)N([C@H](C)CO)C[C@@H]2C)cc1,-0.2
COc1ccc(NC(=O)Nc2ccc3c(c2)CC(=O)N([C@H](C)CO)C[C@H](C)[C@H](CN(C)S(=O)(=O)c2ccc(OC)cc2)O3)cc1,0.8

Additional compounds.
canonical_smiles,A1 apoptosis 2
C[C@@H]1CN([C@@H](C)CO)C(=O)c2cccc(NC(=O)C3CCCCC3)c2O[C@H]1CN(C)CC1CCCCC1,-0.5
Cc1noc(C)c1S(=O)(=O)Nc1ccc2c(c1)C(=O)N([C@H](C)CO)C[C@H](C)[C@H](CN(C)S(=O)(=O)c1cn(C)cn1)OCCCC[C@@H](C)O2,0.1
O=C(NC1CC1)C1=C[C@H](c2coc3ccccc3c2=O)C[C@H](OCc2ccc(CO)cc2)O1,0.0
Cc1ccc(S(=O)(=O)Nc2ccc3c(c2)CC(=O)N([C@@H](C)CO)C[C@H](C)[C@@H](CN(C)CC2CCCCC2)O3)cc1,-0.9
C[C@@H]1CCCCO[C@H](CN(C)Cc2ccc(C(F)(F)F)cc2)[C@@H](C)CN([C@H](C)CO)C(=O)c2cc(NC(=O)CCCN(C)C)ccc2O1,0.8
C[C@@H]1CCCCO[C@@H](CN(C)C)[C@@H](C)CN([C@@H](C)CO)C(=O)c2cc(NC(=O)C3CCCCC3)ccc2O1,-0.6
Cc1ccc(O)c(/C=N/NC(=O)CCCCCCC(=O)Nc2ccccc2O)c1,-1.4
C[C@H](CO)N1C[C@H](C)[C@H](CN(C)Cc2ccc(C(=O)Nc3ccccc3N)cc2)Oc2c(NS(=O)(=O)c3ccc(F)cc3)cccc2C1=O,-1.1

The list continues:
canonical_smiles,A1 apoptosis 2
C[C@@H]1CCCCO[C@@H](CN(C)C(=O)c2ccncc2)[C@H](C)CN([C@@H](C)CO)C(=O)c2cc(NS(=O)(=O)c3ccc(Cl)cc3)ccc2O1,-0.4
CC(C)NC(=O)Nc1ccc2c(c1)C(=O)N([C@H](C)CO)C[C@@H](C)[C@@H](CN(C)Cc1ccc3c(c1)OCO3)OCCCC[C@H](C)O2,-1.7
COc1ccc(S(=O)(=O)Nc2ccc3c(c2)CC(=O)N([C@H](C)CO)C[C@H](C)[C@@H](CN(C)C)O3)cc1,0.3
Cc1noc(C)c1NC(=O)N(C)C[C@H]1Oc2c(NC(=O)c3cnccn3)cccc2C(=O)N([C@H](C)CO)C[C@H]1C,0.4
C[C@@H]1CCCCO[C@H](CN(C)Cc2ccncc2)[C@@H](C)CN([C@@H](C)CO)C(=O)c2cc(NC(=O)Nc3ccc(F)cc3)ccc2O1,0.4
CNC[C@@H]1Oc2ccc(NS(=O)(=O)c3cn(C)cn3)cc2C(=O)N([C@@H](C)CO)C[C@@H]1C,1.9
C[C@@H]1CN([C@@H](C)CO)C(=O)c2cc(NC(=O)Cn3cnnn3)ccc2O[C@@H]1CN(C)S(=O)(=O)c1ccc(Cl)cc1,0.5

From PubChem
